Biofilm kill mix = mixture kills Candida albicans biofilm cells | C. albicans biofilm persisters + clotrimazole, fluorescence viability; primary screen in compound mixtures of four per well | inhibition, % at 7.6 µM | hit rate 0.02% among 120,000;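 active = inhibition above 30.3% in the primary screen of four-compound pools, then above 30% when the compound was retested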;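 also: compounds exposed to preformed 24 h biofilms for 48 h; the number belongs to the whole pool; some results filed as inactive read as strong as hits; inactives centre near 12; 0% = biofilm with clotrimazole alone and 100% = kill control; retested singly at about 60 µM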
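Assay system: C. albicans biofilms / Medium: RPMI/MOPS medium, pH 7.0 / Schedule: biofilm formation 24 h, compound exposure 48 h, 37 °C / Measured by: Alamar Blue fluorescence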
* marks the source's active call; other numbers are inactive results. Only part of the results is shown; rates above refer to the full screens.

structure | Biofilm kill mix
O=c1c2ccccc2nnn1COc1cccc(Cl)c1 | 14
COC(=O)c1c(NC(NC(=O)C(C)C)C(Cl)(Cl)Cl)sc2c1CCC2 (stereo not given) | 9
O=C(CSc1cccc[n+]1[O-])c1ccc(-c2ccccc2)cc1 | 14
O=C(NNc1ccccc1[N+](=O)[O-])NC1CCCCC1 | 10
CCCc1cc(=O)[nH]c(Nc2ccc3c(c2)OCCO3)n1 | 18
Cc1ccc(SCC(=O)N(C)C2CCS(=O)(=O)C2)cc1 (stereo not given) | 10
CCOC(=O)C1(Cc2ccc(Cl)cc2)CCN(C(=O)c2sc(C)nc2C)CC1 | -5
CSc1oc(-c2ccccc2)nc1S(=O)(=O)c1ccc(F)cc1 | 5
CCOC(=O)CNC(=O)Cc1ccc(Cl)cc1 | 15
Cc1[nH]c(=O)[nH]c(=O)c1/C=C/C(=O)OCC(C)C | 12
COCCCn1c(=NC(C)=O)c(C#N)cc2c(=O)n3cccc(C)c3nc21 | 24
COc1cc2[nH]c(=O)n(CCC(=O)N3CCN(Cc4ccc5c(c4)OCO5)CC3)c(=O)c2cc1OC | 13
Cn1cc(CN2C[C@H]3CC[C@H]2C3)c(-c2ccccc2F)n1 | -3
COC(=O)c1ccc(C(=O)OC)c(NC(=S)N2CCOCC2)c1 | 14
CCOC(=O)C1=C(C)N=C2c3ccccc3C(=O)C2C1c1ccc(Br)cc1 (stereo not given) | 19
CN(C)S(=O)(=O)c1ccc(Cl)c(C(=O)Nc2ccccc2[N+](=O)[O-])c1 | 20
CC(C)Cc1oc(C(=O)O)cc1CN1CCOCC1 | 9
O=C(N/C(=C\c1ccccc1Cl)C(=O)N1CCOCC1)c1ccc([N+](=O)[O-])cc1 | 10
COc1cc(C(=O)NCCOc2cccc3cccnc23)cc(OC)c1OC | -8
CCC(O)(CC)C(=O)NN(C(=O)CCl)c1ccccc1 | 15
Cc1cc(Nc2ccc(F)cc2F)n2ncnc2n1 | 11
CCN(C(=O)COC(=O)c1[nH]c(=O)[nH]c(=O)c1N)c1ccccc1 | 6
CCN(C(=O)CSc1cc(C)c2ccc(OC)cc2n1)C1CCS(=O)(=O)C1 (stereo not given) | 8
FC(F)(F)c1ccccc1/C=N/Nc1ccccn1 | 14
O=c1nc2ccccc2c2n1CC(CN1CCN(C(c3ccccc3)c3ccccc3)CC1)N2 (stereo not given) | 14
NNC(=O)c1ccc(Cn2cc(Br)cn2)cc1 | 22
CCCCNc1ccc2c3c(cccc13)C(=O)N(CCCC)C2=O | 13
CC(=O)Nc1ccc(C(=O)N(C)C(C(=O)Nc2ccccc2)c2ccccn2)cc1 (stereo not given) | 4
O=C(COc1ccc(Cl)cc1Cl)c1ccc[nH]1 | 19
CC(C)NC(=O)CCCc1c[nH]c2ccccc12 | 16
Cc1ccc(N2C(=O)C(CN3CCCC3)C2c2ccccc2)cc1 (stereo not given) | 6
COC(=O)c1ccc(NC(=O)Cn2c(-c3nonc3N)nc3ccccc32)cc1 | 9
CC(C1CCN(Cc2cn(C)nc2-c2cccc(Cl)c2)CC1)N1CCOCC1 (stereo not given) | 7
O=C(/C=C/c1cccc([N+](=O)[O-])c1)N1CCN(Cc2ccc3c(c2)OCO3)CC1 | 10
O=c1onc(-c2ccc(Cl)cc2)n1Cc1ccc(F)cc1 | 1
CC(=O)Oc1ccc2c(c1)OC(c1ccccc1)CC21CC(C)(C)NC(=O)N1 (stereo not given) | 13
Cc1cccc(N(C)c2cc(C)nc3ncnn23)c1 | 12
O=C(CSc1nnc(SCc2ccc(F)cc2)s1)Nc1ccc(C(=O)O)cc1 | 12
CC(NS(=O)(=O)c1ccc2[nH]c(=O)c(=O)[nH]c2c1)C(=O)O (stereo not given) | 8
CC1CN=C(N(C(=S)Nc2ccccc2)c2cccc(C(F)(F)F)c2)S1 (stereo not given) | 13
Cc1ccc(C(=O)NNC2CC(=O)N(c3ccc4c(c3)OCCO4)C2=O)cc1 (stereo not given) | 10
CN=C(Nc1ccc(C)c(C)c1)SC1CC(=O)N(c2ccc(OC)cc2)C1=O (stereo not given) | 3
CCOc1ccc(NC(=O)CC2SC(N)=NC2=O)c([N+](=O)[O-])c1 (stereo not given) | 12
O=C1CC(c2ccccc2)CN1C(=O)c1cccnc1 (stereo not given) | 15
CCN1CCN(C(=S)c2ccc([N+](=O)[O-])cc2)CC1 | 15
CC1(C)CC(NC(=O)CCc2nnc(CCCCc3ccccc3)o2)CCO1 (stereo not given) | 14
COc1ccc(NS(=O)(=O)c2cc(NC(=O)C3CCCO3)ccc2N2CCCC2)cc1 (stereo not given) | 2
CCc1ccccc1Nc1nc(N)nc(CSc2nnc3ccccn23)n1 | 7
CC(=O)N1c2ccccc2C(CBr)=CC1(C)C | 23
CC(=O)NS(=O)(=O)c1ccc(NS(=O)(=O)c2ccccc2[N+](=O)[O-])cc1 | 18
CCN(CC)S(=O)(=O)c1cccc(NC(=O)CN2C(=O)c3ccc([N+](=O)[O-])cc3C2=O)c1 | 11
Cc1nc([N+](=O)[O-])c(NCCO)n1Cc1ccccc1 | 7
COc1cc(NC(=S)N2CCCC(C)C2)c(OC)cc1Cl (stereo not given) | 18
COc1ccc(Cn2nc(-c3ccccc3)c(N3CCCCC3)cc2=O)cc1 | -8
CN1CCN(CCNC(=O)c2cn(Cc3ccccc3F)nn2)CC1 | 27
CN(CC(=O)Nc1ccc(Cl)cc1)CC(=O)Nc1ccc(F)c(F)c1F | -7
OC(COCc1ccco1)CN1CCN(c2ccccc2)CC1 (stereo not given) | 9
CCn1c(Cc2ccccc2)nnc1SCC(=O)Nc1ccccc1F | 12
S=c1[nH]nc(C2CC2c2ccc(Cl)cc2)n1-c1ccc(Cl)cc1 (stereo not given) | -7
COC(C[C@@H](O)[C@H](C)[C@@H](O)COCc1ccccc1)OC | 7

The list goes on, starting with the last 3 of the part before.
structure | Biofilm kill mix
CCn1c(Cc2ccccc2)nnc1SCC(=O)Nc1ccccc1F | 12
S=c1[nH]nc(C2CC2c2ccc(Cl)cc2)n1-c1ccc(Cl)cc1 (stereo not given) | -7
COC(C[C@@H](O)[C@H](C)[C@@H](O)COCc1ccccc1)OC | 7
COc1ccc(N(CC(=O)NCc2ccco2)S(C)(=O)=O)c(OC)c1 | 17
O=C(NCCCCCNC(=O)c1ccccn1)c1ccccn1 | 5
COc1ccnc(Oc2ccc(F)cc2)c1C(=O)N/C=N/OCc1ccccc1 | 32
Nc1ncnc2nc(SCCc3ccccc3)[nH]c12 | 11
COc1cc(OC)nc(Oc2cc(/C=N/O)ccc2OC)n1 | 7
O=C1CC(c2ccccc2)CC(=O)C1CS(=O)(=O)c1ccccc1 (stereo not given) | 10
COCCNC(=O)c1cc2cc(Br)cc(Br)c2oc1=O | 2
O=C(C/C=N\OCc1ccc([N+](=O)[O-])cc1)Nc1ccc(F)cc1F | 6
COC(=O)c1[nH]c2cccc(OC)c2c1NC(=O)CCN1CCSCC1 | 19
O=C(CCc1ccccc1)Nc1nn[nH]n1 | 17
Cc1ccc(/C=N/NC(=O)COc2ccccc2-c2ccccc2)cc1 | 11
O=S(=O)(c1ccc(-c2ccccn2)s1)N1CCC2(CC1)OCCO2 | 17
COc1ccc(C2NCCc3c2[nH]c2ccccc32)cc1CN1CCc2cc(OC)c(OC)cc2C1C (stereo not given) | 23
CC1CCN(c2ccc(C=O)o2)CC1 | 18
O=C(NCc1ccccc1)c1ccc(CNc2c(N3CCCC3)c(=O)c2=O)cc1 | 3
COc1ccccc1Nc1nc(NCCCN(C)C)nc(N)c1[N+](=O)[O-] | 18
Nc1ccc2c(C(F)(F)F)cc(C(F)(F)F)nc2n1 | 1
NC(=O)c1ccccc1NC(=O)c1ccccc1Cl | 13
CCCCc1ccc(S(N)(=O)=O)cc1 | 16
CCOC(=O)COc1ccc(C(=O)Nc2cccc(Cl)c2C)cc1 | 4
CS(=O)(=O)N(CC(=O)Nc1ccc(S(=O)(=O)N2CCCC2)cc1)c1ccccc1 | 14
CCc1ccc(OCC(=O)NNC(=O)CSc2nnc(-c3ccc(C)cc3)n2C)cc1 | 18
O=C(NCCSc1ccccc1)c1ccc(Br)cc1 | 10
COc1cccc(NCc2cc(=O)oc3cc(-c4ccccc4)c(O)cc23)c1 | 11
CCc1ccccc1NC(=S)N1CCNC(=O)C1CC(=O)OC (stereo not given) | 11
O=C(NCc1ccccn1)C(=O)N/N=C/c1ccc2c(c1)OCO2 | 9
Cc1cc2[nH]ncc2cc1NC(N)=S | 9
Cc1cc(NC(=O)CSc2nnc(-c3ccncc3)n2C)n(-c2ccccc2)n1 | 16
Cc1ccc2nc(-c3cccnc3)cc(C(=O)Nc3ccc(F)cc3C)c2c1 | 6
COc1cc(NC(=S)N(C)C)c(OC)cc1Cl | 6

Shown field by field: part of the list above.
O=C1CC(c2ccccc2)CC(=O)C1CS(=O)(=O)c1ccccc1 (stereo not given)
  Biofilm kill mix = 10

COCCNC(=O)c1cc2cc(Br)cc(Br)c2oc1=O
  Biofilm kill mix = 2

O=C(C/C=N\OCc1ccc([N+](=O)[O-])cc1)Nc1ccc(F)cc1F
  Biofilm kill mix = 6

Other results
structure | Biofilm kill mix
Cc1ccc(-n2cc(CN3CCN(Cc4nccn4C)CC3)c(-c3cccc(C)c3)n2)cc1 | 22
Cc1cc(C)cc(NC(=S)NCc2ccc(F)cc2)c1 | -1
CCN(CC(=O)NC(=O)NCc1ccccc1)Cc1nc2ccccc2c(=O)[nH]1 | 21
COc1ccccc1/C=C/C=N/n1c(-c2ccc(F)cc2)n[nH]c1=S | 21
CCN(c1ccccc1)S(=O)(=O)c1ccc(OC)c(N=N/C(C(=O)Nc2ccccc2)=C(/C)O)c1 | 1
Cc1ccc(N2CCN(c3ccc(NCc4nc5ccccc5n4C)cc3)CC2)cc1 | 10
Cc1nn(-c2cc(Cl)ccc2Cl)c(C)c1C(=O)O | 4
COc1cc(/C=C2\C(=O)NN(c3ccccc3)C2=O)cc([N+](=O)[O-])c1O | 18
CC1(C)CC(=O)c2c(oc3ccc(NS(=O)(=O)c4cccc5cccnc45)cc23)C1 | 9
Cc1cc(Cl)ccc1NC(=S)NCC(C)C | 14
Cc1ccc(S(=O)(=O)/C(C#N)=C/c2c(N3CCOCC3)nc3c(C)cccn3c2=O)cc1 | 7
CCOc1ccc(/C=C/C(=O)NCCc2ccc(OC)c(OC)c2)cc1 | 20
COc1ccc(C(CNC(=O)c2ccccc2SC)N(C)C)cc1 (stereo not given) | 11
O=C(/C=C\Nc1ccc(Cl)cn1)c1ccc(Br)cc1 | 7
COc1ccc(C(C)=O)cc1CSc1nnnn1-c1ccc(O)cc1 | 15
Cc1ccnc(NS(=O)(=O)c2ccc(NC(=O)c3ccc(N4C(=O)CCC4=O)cc3)cc2)n1 | 9
Cc1ccc(S(=O)(=O)N(C)C)cc1NC(=O)c1cc(C(C)(C)C)nn1Cc1ccccc1 | 19
Cc1ccn2c(NC(=O)C(C)(C)Oc3ccc(Cl)cc3)c(-c3cccs3)nc2c1 | 16
Cc1nc([N+](=O)[O-])c(C(=O)OCc2cccc(Br)c2)n1C | 12
CCOC(=O)c1c(NC(=S)N2CCOCC2)sc(C)c1C | 18
COC(=O)c1ccsc1-n1cc(C#N)c(=O)n(C)c1=O | 19
COc1ccc(Br)cc1[C@H]1[C@H]2C=CC[C@@H](C)[C@@H]2C(=O)N1Cc1ccccc1 | 5
NC(=O)c1ccc(N=C2C(=O)Nc3ccc([N+](=O)[O-])cc32)cc1 | 12
CCOC(=O)Cc1nn[nH]n1 | 7
COc1ccc(-c2coc3cc(O)cc(O)c3c2=O)cc1OC | 19
CCOC(=O)n1c(=O)[nH]c2ccc(Br)cc21 | 4
CCOC(=O)c1ccc(-c2cc(C)no2)[nH]1 | 14
CC1Oc2ccccc2OC1C(=O)Nc1ccccn1 (stereo not given) | 0
COc1ccc(C(=O)NCCSCc2ccccc2)cc1OC | 16
CCC1(CC)Nc2ccccc2C(=O)N1c1ccc(OC)cc1 | 15
Cc1nc(SCc2ccccc2F)c2oc3ccccc3c2n1 | 17
Cc1[nH]nc(SCC(=O)N2CCCCCC2)c1[N+](=O)[O-] | 23
CCCS(=O)(=O)c1nc(S(=O)(=O)c2ccc(C)cc2)c(NCc2ccccn2)s1 | 7
COc1ccccc1Nc1nc(N)nc(CSC(=S)N2CCCCC2C)n1 (stereo not given) | 5
COCCCNc1nc2nonc2nc1N1CCN2CCCC2C1 (stereo not given) | 23
CCOC(=O)c1ccc(-n2c(C)nc3ccc(Br)cc3c2=O)cc1 | 14
COc1ccc(CCn2c(C)nc3c(c(=O)c4ccccc4n3C)c2=O)cc1 | 16
CCc1nc(N)c(C#N)c(-c2ccco2)c1C | 11
C/C(=N/NC(=O)CNC(=O)Cc1ccccc1)c1ccc(Cl)cc1 | 5
COC(=O)C1=C(N)Oc2c(oc(CO)cc2=O)C1c1c(F)cccc1Cl (stereo not given) | 16
Cc1ccc(S(=O)(=O)N2CCC(C(=O)N/N=C/c3cccnc3)CC2)cc1 | 9
O=c1cc(N=Nc2ccc(Cl)cc2)[nH]c(=O)[nH]1 | 11
COc1cccc(C(=O)C2CCCN(C(=O)CCC3=NNC(=O)CC3)C2)c1 (stereo not given) | 5
O=C(N/N=C/c1ccc(F)cc1)c1cc(-c2ccc3c(c2)OCO3)n[nH]1 | 0

Taken from above.
In Biofilm kill mix, O=C(COc1ccc(Cl)cc1Cl)c1ccc[nH]1 shows 19
In Biofilm kill mix, COc1ccccc1Nc1nc(N)nc(CSC(=S)N2CCCCC2C)n1 (stereo not given) shows 5

Reprinted at random: 2 compounds from above, in no set order.
structure | Biofilm kill mix
COCCCNc1nc2nonc2nc1N1CCN2CCCC2C1 (stereo not given) | 23
O=c1cc(N=Nc2ccc(Cl)cc2)[nH]c(=O)[nH]1 | 11

Screening data deposited in PubChem BioAssay by PCMD.
